# Screens deposited in PubChem BioAssay by National Center for Advancing Translational Sciences (NCATS).
# Prx2 Sm inh: Schistosoma mansoni Prx2 inhibition; Potency, µM; actives 0.07% (n = 65,000); S. mansoni Prx2 activity coupled to TGR/GSH (TGR is thioredoxin glutathione reductase), NADPH fluorescence loss, qHTS; some inactives read as strong as hits; active means full or partial inhibition curve with a strong effect at the top dose; inconclusive means weaker partial or single-point curve; inactive means no accepted curve; also: series up to 57 µM; many of its hits are not listed in these tables
#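 qHTS, coupled TGR/Prx2 format; 15 min compound preincubation at RT; reaction started with H2O2 (2.5 mM aliquot); kinetic NADPH fluorescence decrease, ex 365/em 450 nm.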
# Anthrax LT inh: anthrax lethal toxin internalization inhibition | Cells, anthrax lethal toxin internalization, FRET ratio (460/530) | Potency, µM (highest dose often 40 µM), for inactives: top-dose activity change, negative = inhibition, usual class: inhibitors | actives 0.67% (n = 70,000) | AID 912; active = well fitted falling ratio curve with the 530 nm signal flat; inconclusive = other ratio curves, or a change in one channel alone; inactive = flat curves in the ratio and both channels; the % refers to the ratio; also: % is scaled to controls: 0 for no effect and ±100 for the full control effect; nearly all actives have a fitted effect of over 50% in size; tested in ME-180 cells; beta-lactamase reporter
# * hit, by the source's call; ? = inconclusive; nt = not tested or not shown; [ ] = dose if it differs, or a comment. Potency is read from the fitted curve at half-maximal effect.
# Order of results – Prx2 Sm inh, Anthrax LT inh
- O=c1cc(CO)oc(C(Nc2ccccn2)c2ccsc2)c1O (stereo not given)
  >57, -6%
- O=C(O)c1cccc(S(=O)(=O)Nc2ccc3c(c2)OCO3)c1
  >57, 4%
- Cc1[nH]c(=O)[nH]c(=O)c1S(=O)(=O)N1c2ccc(F)cc2CCC1C (stereo not given)
  >57, -1%
- Cc1ccc2c(SCC(=O)NCc3ccco3)nc(-c3ccc(F)cc3)nc2c1
  >57, -3%
- COc1ccc2c(c1OC)C(=O)N1C(C(=O)O)Cc3c([nH]c4ccccc34)C21 (stereo not given)
  >57, -1%
- N#Cc1nc(COc2ccccc2)oc1N1CCC(Cc2ccccc2)CC1
  >57, ?
- Cc1ccc(S(=O)(=O)N2CCCC(C(=O)NCc3cccnc3)C2)cc1Cl (stereo not given)
  >57, -7%
- Cc1cccc(N2CCN(C(=O)C3CCN(c4nnc(-n5cccc5)s4)CC3)CC2C)c1 (stereo not given)
  >57, 7.9µM*
- COc1ccc(Cl)cc1NC(=O)N(C)Cc1c(C)nn(C)c1C
  >57, 3%
- COc1ccccc1CN1CC(C(=O)NC2CCCCC2)CC1=O (stereo not given)
  >57, -2%
- Cc1cc(C(=O)NC(C)C2CCCO2)cs1 (stereo not given)
  >57, 1%
- O=C(c1oc(=O)c2ccccc2c1-c1ccccc1)N1CCC(O)CC1
  >57, -5%
- Cc1ccc(C)c(NS(=O)(=O)c2ccc(OCC(=O)NCc3ccco3)cc2)c1
  ?, -19%
- Cc1cccc(N(C(=O)CCC(=O)Nc2ccccn2)C(C(=O)NC(C)C)c2ccc(O)cc2)c1 (stereo not given)
  >57, 15%
- O=C(Cn1[nH]c(=O)c2ccccc2c1=O)N1CC=C(c2ccccc2)CC1
  >57, -16%
- O=C(COc1cccc2cccnc12)NCC(F)(F)F
  >57, 10%
- C=CCOc1nc2c(c(=O)n(C)c(=O)n2C)n1C
  nt, -3%
- O=C(Cn1nnc(-c2ccccc2NC(=O)c2ccccc2F)n1)NCc1ccco1
  >57, 12%
- O=C(Nc1nnc(C2CCCO2)s1)c1cccs1 (stereo not given)
  >57, ?
- O=C1NCCCC2c3cc(O)c4ccccc4c3OC12N1CCCCC1 (stereo not given)
  nt, -16%
- Cc1cccc2cc(CN(CC3CCCO3)C(=O)NC3CCCCC3)c(=O)[nH]c12 (stereo not given)
  >57, -13%
- CCOC(=O)CC(=O)Nc1c(C)cc(C)cc1C
  >57, 6%
- C/C(N)=C(/C#N)C(=O)COC(=O)c1cc(S(=O)(=O)N2CCCCC2)ccc1C
  >57, 10%
- COc1ccc(OC)c(NC(=O)Cn2cc(C#N)c3cc(Br)ccc32)c1
  >57, ?
- CC(C)=CCC/C(C)=C/CC/C(C)=N/O
  nt, -3%
- Cc1nc(SCC(=O)NCCc2ccccc2)n[nH]1
  >57, -2%
- CC(=O)Nc1ccc(S(=O)(=O)NCCN2CCOCC2)cc1
  nt, -5%
- CN1C(=O)c2ccc(S(=O)(=O)c3ccc(C(=O)O)cc3)cc2C1=O
  >57, 1%
- Cc1ccccc1NC(=O)C1Cc2ccccc2C(=O)O1 (stereo not given)
  >57, 6%
- CCN(CC)c1ccc(-n2cc3c(=O)n(C)c(=O)n(C)c3c2)cc1
  >57, -5%
- Nc1ccc(N(S(=O)(=O)c2ccccc2)S(=O)(=O)c2ccccc2)c(Cl)c1
  >57, -17%[8 µM]
- c1cn2c(NC3CCCC3)c(-c3ccc(N4CCOCC4)cc3)nc2cn1
  >57, -6%
- O=C(COC(=O)c1ccc2c(c1)OCO2)NC1CCS(=O)(=O)C1 (stereo not given)
  >57, 4%
- COc1ccc(Br)cc1S(=O)(=O)N1CCOCC1
  >57, ?
- CC1CCc2nn(CC(=O)NCCC3=CCCCC3)cc2C1 (stereo not given)
  >57, -3%
- CCCCCCCCOc1ccc(C(=O)O)cc1
  nt, -5%
- O=S(=O)(NCc1ccc2c(c1)OCO2)c1cccc2cccnc12
  >57, ?
- Cc1ccc(NC(=O)CCn2c(=O)oc3ccccc32)cc1
  >57, 5%
- Cc1cc(C)c(N)cc1C
  nt, -1%
- O=C(c1ccco1)N1CCN(C(=O)c2cnn3cccnc23)CC1
  >57, -5%
- COc1ccc(OCC(=O)Nc2ncc3c(n2)CC(C)(C)CC3=O)cc1
  >57, 8%
- Nc1n[nH]c2ccccc12
  >57, 8%[8 µM]
- CCOc1ccc(CN2CCN(S(=O)(=O)c3ccc(NC(C)=O)cc3)CC2)cc1OC
  >57, -25%
- CCOc1ccccc1N(C)C(=O)C1CCN(S(=O)(=O)c2cccc3nonc23)CC1
  >57, 12%
- CCOC(=O)N1CCN(C(=O)CCc2c(C)nc3nc(C)nn3c2C)CC1
  >57, -14%
- COc1ccc(-c2cc(CCCC(=O)NCCc3cc(OC)ccc3OC)no2)cc1
  >57, 10%
- Cn1c(-c2ccc3c(c2)OCO3)cnc1NCc1cccc(Cl)c1
  >57, -19%
- COc1c(Cl)cc(Cl)cc1C(=O)Nc1ccccc1N1CCN(C(C)=O)CC1
  >57, 2%
- c1ccc2c(CCNCc3ccc4c(c3)OCO4)c[nH]c2c1
  >57, -20%
- Cc1oc2cc3c(C(=O)OCCN(C)C)c(C)oc3cc2c1C(=O)OCCN(C)C
  >57, 12%

# (next part)
# Order of results – Prx2 Sm inh, Anthrax LT inh
- COc1ccc(-c2coc3cc(O)ccc3c2=O)cc1OC
  >57, 1%
- COc1nc2ccccc2c(=O)n1OCC(C)C
  >57, nt
- Cc1sc2ncnc(SCC(=O)c3cccs3)c2c1C
  nt, ?
- CS(=O)(=O)N1CCC2(CCN(c3ccccc3)CC2)CC1
  >57, 8%
- O=C(O)c1cc(-c2ccco2)nc2ccccc12
  nt, ?
- COc1cc2c3cc1Oc1c(O)c(OC)cc4c1[C@@H](Cc1ccc(cc1)Oc1cc(ccc1O)C[C@H]3N(C)CC2)N(C)CC4
  >57, ?
- O=C(CN1C(=O)CCC1=O)Nc1nc(-c2cccs2)cs1
  >57, ?
- CS(=O)(=O)N(CC(=O)NC1CCCCC1)c1cccc(Cl)c1
  >57, -10%
- O=C(CN1C(=O)c2ccccc2C1=O)Nc1cccc2cccnc12
  >57, -9%
- Cc1nn(C)c(C)c1NC(=O)CSc1nc(-c2ccccc2F)nc2c1cnn2-c1ccccc1
  >57, -7%

# Further results
structure | Prx2 Sm inh | Anthrax LT inh
CCS(=O)(=O)N1CCN(C2CCC(C)CC2)CC1 (stereo not given) | >57 | -12%
OCC(CO)(CO)N=Cc1c(O)ccc2ccccc12 | >57 | -6%
COc1ccc(CCNc2nc(-c3ccco3)cc(C(F)(F)F)n2)cc1OC | >57 | ?
CN1CCN(c2ncc3nc(-c4ccccc4)c(=O)n(C)c3n2)CC1 | >57 | ?
COc1ccc(NC(=O)C2Cc3ccccc3CN2C(=O)c2ccccc2)cn1 (stereo not given) | >57 | 6%
O=C(c1ccc(N2CCCC2=O)cc1)N1CCCCCC1 | >57 | 22%
O=C(NCC1CCCO1)c1c(O)c2ccccc2[nH]c1=O (stereo not given) | >57 | 2%
CN(C)c1ccc(C(c2nnnn2CCOC(=O)Nc2ccc(Cl)cc2)N2CCOCC2)cc1 (stereo not given) | >57 | -8%
COc1ccc(-n2c(Cc3cccn3C)nnc2SCC(=O)Nc2cccc(OC)c2)cc1 | >57 | -13%
COc1ccc(OC)c(NC(=O)c2c(NC(=O)c3ccco3)sc3c2CCC3)c1 | >57 | -3%
C=C(C)Cn1c(CCCNC(=O)CC)nc2ccccc21 | >57 | -7%
Cc1ccc(N2C(=O)c3ccc(C(=O)NCCN4CCOCC4)cc3C2=O)cc1 | >57 | -21%
COC(=O)N1CCC2(CCN(C(=O)NC(C)C)CC2)CC1 | >57 | 6%
COc1ccc(C2CC(=O)c3c(C)nc(N4CCN(c5ccccc5)CC4)nc3C2)cc1 (stereo not given) | >57 | 1%
N#C/C(=C(/O)CSc1nnc(Cc2cccs2)n1C1CCCCC1)c1nc2ccccc2[nH]1 | >57 | 3%
Cn1nccc1C(=O)NCCN1C(=O)OC(C)(C)C1(C)O (stereo not given) | >57 | -1%
C=CCNC(=O)CCCOc1cc(C)ccc1C | >57 | -5%
C=CCNc1oc(-c2ccc(OCC)cc2)nc1C#N | >57 | ?
COCCN(C(=O)c1csnn1)C(C(=O)NC1CCCCC1)c1cccs1 (stereo not given) | >57 | -3%
CC(C)Cn1c(-c2ccccc2F)n[nH]c1=S | >57 | 0%
CC(C)CC1NC(=O)N(CC(=O)c2ccc3c(c2)OCCO3)C1=O (stereo not given) | >57 | -3%
CC(=O)NCCNc1nc(-c2ccccc2Cl)nc2ccccc12 | >57 | 5%
C[C@@](O)(CNS(=O)(=O)c1ccccc1)c1ccccc1 | >57 | ?
COc1cc([C@H](O)C(=O)O)ccc1O | >57 | ?

# The final six compounds of the part before are carried over, then new ones follow.
structure | Prx2 Sm inh | Anthrax LT inh
COCCN(C(=O)c1csnn1)C(C(=O)NC1CCCCC1)c1cccs1 (stereo not given) | >57 | -3%
CC(C)Cn1c(-c2ccccc2F)n[nH]c1=S | >57 | 0%
CC(C)CC1NC(=O)N(CC(=O)c2ccc3c(c2)OCCO3)C1=O (stereo not given) | >57 | -3%
CC(=O)NCCNc1nc(-c2ccccc2Cl)nc2ccccc12 | >57 | 5%
C[C@@](O)(CNS(=O)(=O)c1ccccc1)c1ccccc1 | >57 | ?
COc1cc([C@H](O)C(=O)O)ccc1O | >57 | ?
CCN(CC)c1ccc(NC(=O)CN2C(=O)CC(C)(C)S(=O)(=O)c3ccccc32)c(C)c1 | >57 | -12%
O=C1C2C3C=CC(C3)C2C(=O)N1c1nccs1 (stereo not given) | >57 | ?
Cc1ccc(NC(=O)CSc2nnc(Cc3cccn3C)n2-c2ccc(F)cc2)cc1 | >57 | -25%
CCCCc1nc2ccccc2n1Cc1nnc2n1-c1ccccc1SC2 | >57 | 10%
CCc1c(C)sc(NC(=O)c2ccc(Br)o2)c1C(=O)OC | >57 | -10%
COc1ccc(N2CCn3c2nc2c3c(=O)n(CCc3ccccc3)c(=O)n2C)cc1 | >57 | -13%
O=c1c(-c2ccc(Cl)cc2)nc2cnc(N3CCNCC3)nc2n1CCc1ccccc1 | >57 | -6%
CC(C)OC(=O)c1c(NC(=O)c2cccs2)sc2c1CCCC2 | nt | ?
COc1cccc(-c2nnc(SCC(=O)Nc3cc(C)on3)o2)c1 | >57 | 10%
Cc1cc(C)n2nc(SCC(=O)c3ccc[nH]3)nc2n1 | >57 | ?
CCCCN(C(=O)CN1C(=O)C2CC=CCC2C1=O)c1c(N)n(CCC)c(=O)[nH]c1=O (stereo not given) | >57 | -5%
CCOc1cccc2c1OC1(C)CC2NC(=O)N1c1cccc(F)c1 (stereo not given) | >57 | 6%
Cc1ccc(S(=O)(=O)NC(C(=O)OCC(=O)NC(=O)c2cccn2C)C(C)C)cc1 (stereo not given) | >57 | ?
Cn1nnnc1SCc1ccc(C(=O)Nc2nccs2)cc1 | >57 | -10%
COc1ccc(CCNC(=O)COc2ccc(S(=O)(=O)N3CCOCC3)cc2)cc1OC | >57 | nt
COc1ccccc1C1/C(=C(/O)c2ccc(C)cc2)C(=O)C(=O)N1CC(C)O (stereo not given) | >57 | -9%
O=C(NNS(=O)(=O)c1ccccc1)c1cccnc1 | >57 | 0%[8 µM]
Cc1ccc(/C(O)=C2\C(=O)C(=O)N(CCCN(C)C)C2c2ccccn2)cc1 (stereo not given) | >57 | ?
O=C(NC1CCS(=O)(=O)C1)OC1CCCCC1 (stereo not given) | >57 | -2%
CC1CCCC(C(=O)O)N1C(=O)CCSC(=O)c1ccccc1 (stereo not given) | >57 | -6%
CCCn1cc(C(CC(=O)O)C(=O)O)c2ccccc21 (stereo not given) | >57 | 0%
C=CCN1C(=NC(=O)CCCC(=O)O)SC2CS(=O)(=O)CC21 (stereo not given) | >57 | 1%
CCN1CCN(C(=O)c2cc3c(=O)n4ccccc4nc3n2Cc2ccccc2)CC1 | >57 | ?
Cc1ccnc2nc(C(=O)NC3=NCCS3)nn12 | >57 | -7%
O=C(Nc1ccc2c(c1)ncn2-c1ccccc1)c1ccco1 | >57 | 11%
CCOc1ccc(C(=O)OCC(=O)NCc2ccco2)cc1OCC | >57 | 2%
COc1ccc(S(=O)(=O)N2CCN(c3cccc(C)c3C)CC2)cc1 | >57 | ?
O=c1[nH]c2ccc(S(=O)(=O)Nc3ccc(-c4nnc5n4CCCCC5)cc3)cc2o1 | >57 | -6%
CC(C)Sc1nc(N)c2c3c(sc2n1)CN(C)CC3 | >57 | -19%
Cc1ccc(C(=O)C2CCNCC2)cc1 | >57 | -5%
O=C1c2oc3ccccc3c(=O)c2C(c2cccs2)N1CCCN1CCOCC1 (stereo not given) | >57 | ?
CCCOc1ccc(N2C(=O)CC(N3CCC(c4nncn4CC)CC3)C2=O)cc1 (stereo not given) | >57 | 5%
O=C(CCCN1C(=O)c2ccccc2C1=O)Nc1nncs1 | >57 | ?
COc1ccc(C)cc1-n1nnnc1SCc1nc2ccccc2s1 | >57 | -19%
CC(=O)Nc1ccc(C2NC(=O)c3ccccc3O2)cc1 (stereo not given) | >57 | ?
Cc1ccc(C)c(Cn2cnc3c(cnn3C(C)(C)C)c2=O)c1 | >57 | -10%

# Copied from the list.
# Value of CC(C)Sc1nc(N)c2c3c(sc2n1)CN(C)CC3 under Anthrax LT inh: -19%
# Value of CC(=O)Nc1ccc(C2NC(=O)c3ccccc3O2)cc1 (stereo not given) under Prx2 Sm inh: >57

# These rows are one share of the data, so the mix of outcomes need not match the whole.
